SARS PLP yeast: blocks SARS-CoV papain-like protease in a yeast assay; 330,000 tested, 0.19% active; Potency, µM (series often up to 32.9 µM), inactives show at the top dose activity, positive = growth rescue; S. cerevisiae expressing SARS-CoV PLpro, growth rescue; control for the full effect not named in the record; AID 485353; note: 0% is about no effect; nearly all actives have a fitted effect of over 55% in size; growth read by luminescence after 48 h
StopGo reporter: lowers the luciferase signal of an FMDV 2A StopGo reporter; Potency, µM (top dose mostly 57.9 µM), without a hit: at the highest dose signal change, negative = less light; human cells with a luciferase reporter of 2A StopGo recoding; control for the full effect not named in the record; 410,000 tested, 1.2% active; active = well fitted falling curve with a large enough effect; inconclusive = small, poorly fitted or top-dose-only effect; inactive = no such curve, though single readings can be large or run the other way; tested in HEK293T cells; note: % is set by controls: 0 for no effect and ±100 for the full control effect; nearly all actives have a fitted effect of over 45% in size; luciferase light after 4 h
Marburg entry inh: blocks Marburg virus binding to or entry into cells; Marburg virus pseudotyped entry inhibition, cell reporter; control for the full effect not named in the record; about a third of the inactives were read at about 46 µM; AID 540276; 300,000 tested, 1.8% active; Potency, µM (titrated, usually from 37.8 µM), inactives show top-dose activity change, negative = inhibition, hits mostly inhibitors; active = well fitted inhibition curve with a large enough effect; inconclusive = small, poorly fitted or top-dose-only effect, or effect the other way; inactive = flat fitted curve, though single readings scatter; tested in HEK293 cells; about a fifth of its hits are not listed in these tables; note: % is set by controls: 0 for no effect and ±100 for the full control effect; luciferase read-out
Lassa entry inh: blocks Lassa virus binding to or entry into cells | 300,000 tested, 1.2% active | Lassa virus pseudotype entry inhibition, cell reporter; control for the full effect not named in the record | Potency, µM (highest dose often 37.9 µM), without a hit: top-dose activity change, negative = inhibition, actives largely listed as inhibitors | AID 540256; active means well fitted inhibition curve with a large enough effect; inconclusive means small, poorly fitted or top-dose-only effect, or effect the other way; inactive means flat fitted curve, though single readings scatter; tested in HEK293 cells; note: % is set by controls: 0 for no effect and ±100 for the full control effect; nearly all actives have a fitted effect of over 50% in size; luciferase read-out
Cruzain inh Det: cruzain (T. cruzi) inhibition with detergent; purified cruzain, Z-FR-AMC fluorescence, 0.01% Triton; Potency, µM, for inactives: max response, negative = inhibition, hits mostly inhibitors; 200,000 tested, 0.43% active; AID 1478; active = well fitted curve in the direction sought with a large enough effect; inconclusive = small, poorly fitted or top-dose-only effect, or another doubt; inactive = no such curve, though single readings can be large; an effect the other way counts as inactive or inconclusive;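 note: plate controls were neutral wells for no effect and buffer without enzyme for full effect; nearly all actives have a fitted effect of over 40% in size; top concentration of the series not given in the record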
Target sequence (P25779 123-467 limits assumed): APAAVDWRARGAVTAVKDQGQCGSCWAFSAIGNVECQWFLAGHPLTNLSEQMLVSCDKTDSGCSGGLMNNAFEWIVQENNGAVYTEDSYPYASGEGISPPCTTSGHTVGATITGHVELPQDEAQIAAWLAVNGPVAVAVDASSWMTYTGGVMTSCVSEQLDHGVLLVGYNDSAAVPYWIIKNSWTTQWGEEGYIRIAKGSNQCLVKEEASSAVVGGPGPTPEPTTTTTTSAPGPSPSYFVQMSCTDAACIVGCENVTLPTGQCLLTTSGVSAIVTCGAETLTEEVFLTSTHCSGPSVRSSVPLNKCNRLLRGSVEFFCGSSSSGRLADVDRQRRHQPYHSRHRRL
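Purified cruzain (1.5 nM final) was preincubated with compounds for 15 min at room temperature in 100 mM sodium acetate pH 5.5, 5 mM DTT, 0.01% Triton X-100. Reaction started with 2 uM Z-FR-AMC; AMC fluorescence change over 60 s gave activity.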
RE007 growth inh: less growth of the S. pombe RE007 Vpr strain; S. pombe RE007 Vpr strain, BacTiter-Glo ATP luminescence, 24 h; control for the full effect not named in the record; Potency, µM (top dose mostly 92.2 µM), inactives show at the highest dose activity change, negative = less growth; 360,000 tested, 0.21% active; active = well fitted falling curve with a large enough effect; inconclusive = small, poorly fitted or top-dose-only effect; inactive = no such curve, though single readings can be large or run the other way;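 note: % is set by controls: 0 for no effect and ±100 for the full control effect; nearly all actives have a fitted effect of over 50% in size; the assay follows cell death caused by Vpr and the record does not say whether a fall means rescue or toxicity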
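Fission yeast RE007 carrying one integrated HIV-1 vpr copy, seeded at OD 0.01 in PMG+AL medium with 23 nL pinned compound. Grown 24 h at 30 degrees; viability read by BacTiter-Glo luminescence after 5 min.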
NS1 function inh: inhibitors of influenza NS1 protein function | AID 2326 | Potency, µM (highest dose often 46.1 µM), inactives show at the top dose activity, positive = more growth | 270,000 tested, 0.4% active | S. cerevisiae slowed by influenza A NS1, growth recovery by OD600; note: actives are rising curves; nearly all actives have a fitted effect of over 50% in size
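Growth recovery, yeast-based: influenza A NS1 expressed in S. cerevisiae causes slow growth, and suppressors are detected by OD600. The parent strain without NS1 is used as positive control.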
Cruzain noTriton: inhibitors of Trypanosoma cruzi cruzain without detergent | P25779 | purified cruzain, Z-FR-AMC fluorescence, no detergent | Potency, µM, inactives show max response, negative = inhibition, most hits filed as inhibitors | 200,000 tested, 2.3% active | AID 1476; active = well fitted curve in the direction sought with a large enough effect; inconclusive = small, poorly fitted or top-dose-only effect, or another doubt; inactive = no such curve, though single readings can be large; an effect the other way counts as inactive or inconclusive;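 note: plate controls were enzyme without inhibitor for no effect and buffer without enzyme for full effect; nearly all actives have a fitted effect of over 40% in size; top concentration of the series not given in the record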
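Purified cruzain at 1.5 nM, pre-incubated 15 min with compound at room temperature in 100 mM sodium acetate pH 5.5, 5 mM DTT, 0.00005% Triton X-100. Reaction started with 2 uM Z-FR-AMC; AMC fluorescence increase over 60 s gives rate.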
The depositor's hits bear a star; ? = inconclusive; . = not tested or not shown; & = joins results of further samples; [ ] = dose if it differs, or a comment. Unless noted, calls come from the whole dose curve; as a rule, active means well fitted rising curve with a large enough effect; inconclusive means small, poorly fitted or top-dose-only effect; inactive means no such curve, though single readings can be large or run the other way. Potency is the fitted concentration of half-maximal effect. Compounds were not picked by outcome; 4.7% or so of the library scored in one or more.

The line under a structure holds: SARS PLP yeast, StopGo reporter, Marburg entry inh, Lassa entry inh, Cruzain inh Det, RE007 growth inh, NS1 function inh, Cruzain noTriton
> COc1ccccc1C(=O)N1CCN(C(=O)c2oc3ccc(C)cc3c2C)CC1
    6%, 5%, -16%, ?, ., 16%, -25%, .
> CCN(CC)C(=O)c1ccc2c(=O)n(CCOC)c(=S)[nH]c2c1
    20%, ?, 2%, 0%, -2.2%, -6%, -2%, ?
> CCOC(=O)N1CCN(C(=O)c2ccc(CS(=O)Cc3ccccc3Cl)o2)CC1 (stereo not given)
    2%, -18%, ., ., ., -1%, -8%, .
> COc1ccc(CN(C)C(=O)c2ccc3c(=O)n4c(nc3c2)CCC4)c(OC)c1
    -8%, -1%, -16%, 12%, ., -11%, ., .
> CCCCn1c(-c2c(Cl)c(C)nn2C)n[nH]c1=S
    10%, -15%, 2%[46.1 µM], ., ., 16%, ., .
> Cc1cc(-n2nc3ccccc3n2)c(O)c([N+](=O)[O-])c1
    0%, -12%, 10%, ?, ., -28%, -34%, .
> O=C(/C=C/c1ccc(F)cc1)Nc1nc2ccccc2[nH]1
    5%, ., 18%, ?, -2.1%, ., 25%, 10µM*
> Cc1cc(=O)oc2cc3c(cc12)CCCN3
    0%, 58%[activator], 3%, ., ., -13%, -3%, .
> CC(c1nnc(SCC(=O)Nc2cc([N+](=O)[O-])ccc2F)n1Cc1ccccc1)N(C)C (stereo not given)
    -3%, -5%, -2%[46.1 µM], -3%[46.1 µM], ., 10%, ?, .
> COc1cc(NC(=O)C2CCC(CNc3c(N4CCCCC4)c(=O)c3=O)CC2)cc(OC)c1 (stereo not given)
    1%, -2%, -1%, ., -3.5%, -6%, -37%, -4%
> CC(C(=O)NC1C(=O)N2C(C(=O)O)=C(CSc3nnnn3C)CSC12)n1cc(Br)cn1 (stereo not given)
    1%, -2%, 0%[46.1 µM], 10%[46.1 µM], ., 10%, ., .
> CCCc1ccc(OCC(O)CN2CCN(c3ccccc3)CC2)cc1 (stereo not given)
    -5%, ?, ?, -8%[46.1 µM], -3.1%, -2%&-13%, -43%, 6%
> CCn1c(=NC(=O)C2COc3ccccc3O2)sc2c(OC)ccc(OC)c21 (stereo not given)
    1%, 12%, ., ., ., 11%, 6%, .
> Cc1csc(SCC(=O)Nc2sc3c(c2C#N)CCC3)n1
    -2%, -8%, ?, -23%, -7.5%, -24%, -14%, 6%
> CCCc1nnc(N2C(=O)c3cccc4cccc(c34)C2=O)s1
    6%, 0%, -1%, -6%, -2.9%, -10%, -5%, -5%
> COc1ccc(-n2c(=S)[nH]c3cc(C(=O)Nc4ccccc4OC)ccc3c2=O)cc1
    21%, ., 3%, 0%, 0.4%, ., 2%, 12%
> O=C(CN(Cc1ccc(Br)cc1)S(=O)(=O)c1ccccc1)NCc1ccncc1
    1%, -20%, -2%, 8%, ., -5%, -9%, .
> CCOc1cc(S(=O)(=O)NCc2ccccc2)ccc1F
    0%, 36%[activator], ?, 7%, -3.2%, -1%, -5%, 5%
> CC(Sc1nnc(Cc2cccs2)n1C1CCCCC1)C(N)=O (stereo not given)
    1%, -16%, -13%, 5%, 1.3%, 10%, 5%, 6%
> COC(=O)[C@@H]1C[C@@H]2CC[C@@H](O)C[C@@H]2N1Cc1ccc(OC)cc1
    -3%, -23%, ., ., -4.2%, 3%, 1%, -2%

(more compounds)
The line under a structure holds: SARS PLP yeast, StopGo reporter, Marburg entry inh, Lassa entry inh, Cruzain inh Det, RE007 growth inh, NS1 function inh, Cruzain noTriton
> C=CCn1c(SCC(=O)C(C)(C)C)nnc1-c1cccs1
    21%, 44%[activator], ?, 21%, 4.9%, -6%, -55%, 4%
> COc1ccccc1CCNC(=O)C(=O)NCC(c1ccco1)S(=O)(=O)c1ccc(F)cc1 (stereo not given)
    ., -17%, ., -10%[46.1 µM], -3.7%, ., ., 11%
> CC1(C)CC(=O)N(c2ccccc2)C1(C)O (stereo not given)
    -4%, -33%, 22%, 15%, 5.1%, -2%, 0%, 3%
> COc1ccc(C2OC(=O)C(C)(C)C(=O)C2(C)C)cc1OC (stereo not given)
    2%, -15%, ., ., ., -2%, 4%, .
> COc1ccc(CCNC(=O)COC(=O)c2cnccn2)cc1
    1%, 3%, 2%, -6%, 2.1%, 9%, 4%, -9%
> CC1CCN(Cc2c(C(=O)N/N=C/c3cc(Br)ccc3O)nnn2-c2nonc2N)CC1
    ?, -7%, 2µM*, ?, ., 0%, -15%, .
> COc1ccc(C2=NOC(C(=O)NCC(C)C)C2)cc1 (stereo not given)
    2%, 49%[activator], -1%, ?, -0.2%, -4%, -10%, -10%
> Cc1nc2ccccn2c1C(=O)NN
    2%, -9%, ?, 2%, -1.3%, 0%, -8%, 12%
> Cc1cc(S(=O)(=O)NCCCN2CCOCC2)ccc1F
    -2%, 38%[activator], 6%, -3%, 4.2%, -3%, -4%, -3%
> COc1cccc(-c2cc(C(=O)Nc3cccc(O)c3)no2)c1
    3%, -69%, 4.6µM*, 6.5µM*, -12%, -1%, -36%, -12%
> COC(=O)c1c(NC(=O)CN2CCN(S(=O)(=O)c3ccccc3)CC2)sc2c1CCC(C)C2 (stereo not given)
    1%, ., 6%, ., -0.3%, ., 4%, ?
> O=C(C1CCN(S(=O)(=O)c2cccnc2)CC1)N1CCN(C2CCCC2)CC1
    8%, -12%, 16%[46.1 µM], 0%, 1.9%, 7%, -1%, 1%
> O=C(CN1C(=O)c2ccccc2C1=O)N1CCN(C(=O)c2ccco2)CC1
    1%, 11%, 16%, -1%, 2.2%, 8%, 2%, 0%
> CC(=O)c1cccc(NC(=O)c2ccc3c(Cl)c4c(nc3c2)CCCC4)c1
    14%, ?, ?, 4%, -1.1%, -9%, -1%, 19%
> CCN(CC)C(=O)c1oc2ccc(S(=O)(=O)N3CCCCCC3)cc2c1C
    -11%, ?, ?, ?, -4.4%, 18%, -6%, 16%
> CC(=O)c1sc(Nc2cccc(C)c2)nc1C
    -1%, 23%, ?, ., ., -13%, -13%, .
> Cc1cc(Cl)cc(Cl)c1OCCOc1cccc2cccnc12
    0%, -29%, -19%, 0%, -2.0%, -4%, -54%, -3%
> O=C(CSc1nnc(Nc2ccccc2F)s1)c1cc2ccccc2o1
    -17%, 22%, ?, 15%, -11%, -4%, 16%, -24%
> COc1cccc(-n2c(SCC(=O)O)nnc2-c2cccnc2)c1
    1%, ., 10%, 0%, 5.3%, -2%, 4%, 2%
> CCNc1nc(NC(C)CC)nc(Oc2ccc(OCC)nn2)n1 (stereo not given)
    0%, 5%&-2%, 8%&8%[46.1 µM], 1%[46.1 µM], -3.9%, 7%, 3%, 10%

The list goes on.
The line under a structure holds: SARS PLP yeast, StopGo reporter, Marburg entry inh, Lassa entry inh, Cruzain inh Det, RE007 growth inh, NS1 function inh, Cruzain noTriton
> Cc1ccc(N(CC(=O)NCc2ccc(Cl)cc2)S(C)(=O)=O)cc1
    1%, 26%, ., ., ., -12%, -1%, .
> Cc1ccc(CNc2nc(C)cs2)cc1
    -2%, 21%, ?, ?, ., 0%, -9%, .
> CCOCCCNC(=O)CCn1ccc2cc(S(=O)(=O)N3CCCC3)ccc21
    5%, -5%, ., ., ., 15%, 2%, .
> COc1ccc(CN(C(=O)c2nsc(Cl)c2Cl)C(C(=O)NC2CCCC2)c2ccc(OC)cc2)cc1 (stereo not given)
    -11%, -2%, ?, 21µM*, -1.8%, -1%, 13%, -2%
> O=C(CSc1nccn1Cc1ccc(Cl)cc1)Nc1ccc2c(c1)OCCO2
    ., 8%, ., -11%[46.1 µM], -5.4%, ., ., 1%
> COC(=O)c1cn(C(=O)c2ccccc2F)nc1N
    1%, 15%, 10%, -2%, -3.4%, 9%, 6%, -6%
> Cc1cc(=O)n2c(C(=O)Nc3ccc(Br)cc3)c(C(=O)Nc3ccccc3)sc2n1
    ., -1%, -2%[46.1 µM], 2%[46.1 µM], -2.2%, ., ., 3%
> CCc1ccccc1NC(=O)CN1CCN(C(=O)C(C)NC(=O)c2ccc(Cl)cc2)CC1 (stereo not given)
    -2%, -20%, -17%, -14%, ., -4%, ., .
> CCCCOc1ccc(CNC(=O)c2ccc3c(c2)N(C)C(=O)C2CCCCN32)cc1 (stereo not given)
    ., 10%, ., -19%[46.1 µM], -12%, ., ., 14%
> CCn1c(SCc2ccc(F)cc2)nnc1C1CCN(S(=O)(=O)c2ccc(OC)cc2)CC1
    -5%, -18%, ?, ?, 1.5%, 5%, -12%, 5%
> O=C(COC(=O)c1cc([N+](=O)[O-])ccc1N1CCOCC1)Nc1ccc(Cl)cc1
    -1%, ?, -12%, -20%, ., -9%, -2%, .
> CC(C)(C)c1cc(N)n(-c2ccc(C(=O)O)cc2)n1
    1%, 3%, 11%[46.1 µM], 0%, ., -7%, 8%, .
> CC(C)(C)NC(=O)C(=O)NNC(=O)COc1ccccc1
    -10%, -21%, 17%, 8%, 0.5%, 6%, 7%, 0%
> O=C(CN(C(=O)CCC(=O)Nc1ccccn1)c1ccc(F)cc1)NCc1ccc(F)cc1
    4%, 14%, 5%[46.1 µM], ., ., 1%, 0%, .
> Cc1noc(C)c1CSc1nc2ccccc2n1CCc1ccccc1
    -19%, 6%, 5%, ?, -8.1%, -2%, -55%, -8%
> COc1ccc(NC(=S)N2CCN(c3ccccn3)CC2)cc1
    9%, 18%, 0%, -18%, -1.9%, -7%, 3%, 2%
> CS(=O)(=O)N(CC(=O)Nc1ccc(S(=O)(=O)N2CCOCC2)cc1)c1ccccc1Cl
    19%, -16%, 1%[46.1 µM], ., ., 8%, -4%, .
> N#C/C(=C\c1ccc(-c2ccccc2[N+](=O)[O-])o1)C(=O)Nc1nc(-c2cccs2)cs1
    -13%, ?, ?, ?, -6.4%, -9%, 22%, 6.3µM*
> Cc1c(Cl)cccc1NC(=O)CCN1CCCCC1
    -2%, 4%, ?, -2%, -0.7%, 7%, -1%, -11%

Source: PubChem (National Center for Advancing Translational Sciences (NCATS))
